Screens from PubChem BioAssay.
Vaccinia pol inh: vaccinia E9 polymerase processive synthesis inhibitors, primary screen, biochemical, absorbance; in vitro processive DNA synthesis, absorbance read-out; hits give low values; some inactives read as strong as hits; 0.94% of 46,000 active; Vaccinia virus DNA polymerase (E9) processive complex; normalized absorbance, % (no concentration beside the values);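 active means replicate mean up to 90% and picked by the depositor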;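 further: 100% = median of the test wells of a plate; 100 nL library stock went into each well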
* hit, by the source's call; & = joins results of further samples. An excerpt, so the mix of outcomes need not match the whole.

entry | molecule | Vaccinia pol inh
1 | CCN(CC)C(=O)Cn1cc(/C=C2/C(=O)N(C)c3ccccc32)c2ccccc21 | 99.4
2 | S=c1sc2ccccc2n1Cc1ccccc1 | 92.5
3 | O=C(Nc1ccc(Cl)cc1)OCc1ccc(Cl)nc1 | 88.8
4 | CCSc1nnc(NC(=O)C(CC)Sc2ccc(Cl)cc2)s1 (centres undefined) | 101.1
5 | Cc1cccc(N2C(=O)CSC(C)C2=O)c1 (centres undefined) | 102.8
6 | CCCSC1=C(C#N)C(c2cccs2)CC(=O)N1 (centres undefined) | 109.8
7 | C=CCNc1sc(N)c(C#N)c1C(=O)c1ccc(Br)s1 | 101.8
8 | CCOC(=O)C1(c2ccccc2)CCN(CCC(=O)Nc2ccc(C(=O)OC)cc2)CC1 | 100.0
9 | CCn1cc(C2N3CC4(C)CN2CC(C)(C3)C4O)c2ccccc21 (centres undefined) | 104.2
10 | CN(C)c1ccc(C2OCCN2C(=S)Nc2ccccc2F)cc1 (centres undefined) | 103.8
11 | CSc1ccc(C(=O)NC(=O)Nc2cc(C)on2)s1 | 100.6
12 | Cc1cccc(N2C(=O)SC(C)C2=O)c1 (centres undefined) | 100.0
13 | O=C(C(Sc1ccccc1)c1ccccc1)n1cnc2ccccc21 (centres undefined) | 99.0
14 | O=C(Nc1ccc(-n2nncc2-c2ccccc2)cc1)c1ccco1 | 99.8
15 | O=C(O)/C=C/c1ccc(-c2cccc(Cl)c2)o1 | 100.3
16 | CCOC(=O)c1c(/N=C/C2C(=O)NC(=S)NC2=O)sc2c1CCCCC2 | 99.7
17 | COc1ccc2oc(-c3ccccc3)c(C(N)=O)c2c1 | 99.7
18 | COc1nc(-c2ccccc2)cc(C(F)(F)F)n1 | 100.1
19 | O=C(NC1(C(F)(F)F)Oc2ccccc2O1)N1CCCc2ccccc21 | 91.6
20 | NS(=O)(=O)c1cccc(C(=O)NCc2ccccc2)c1 | 107.2
21 | O=C(CCS(=O)(=O)c1cccc2nsnc12)NC1CCCCC1 | 97.4
22 | COc1ccc(Cl)cc1C(=O)NCCc1cc2ccc(C)cc2[nH]c1=O | 100.2
23 | CCCc1c(C(=O)Nc2ncn[nH]2)cnn1-c1ccccc1 | 99.0
24 | CCC1CCCCN1C(=O)COC(=O)c1ccc(NC(C)=O)cc1 (centres undefined) | 97.2
25 | ONC=Nc1nonc1-c1cccnc1 | 99.5
26 | CCCC(=O)c1cc2cc(Cl)ccc2oc1=O | 101.6
27 | Cc1ccc(N2C(=O)CC2(C(=O)NC2CCCCC2)c2ccccc2F)cc1 (centres undefined) | 89.7
28 | O=C(O)c1cc(=O)cc(C(=O)O)o1 | 99.4
29 | CCN(Cc1ccccc1)c1ccc(C2C3=C(CCCC3=O)Nc3[nH]c(=O)[nH]c(=O)c32)cc1 (centres undefined) | 102.1
30 | COc1ccc(Cl)cc1N1C(=O)C2C(c3ccccc3F)NN(C(=O)c3ccc(C)cc3)C2C1=O (centres undefined) | 91.2
31 | CCOC(=O)Cc1nc(C)cs1 | 100.2
32 | Cc1[nH]c(=S)[nH]c(=O)c1Cc1ccccc1 | 99.3&99.6
33 | O=C(Nc1cc(Cl)cc(Cl)c1)C(Sc1ncccn1)c1ccccc1 (centres undefined) | 103.4
34 | CC(C)COC(=O)CCn1[nH]c(=O)c2ccccc2c1=O | 99.9
35 | O=C(Nc1ccc(Cl)cc1)c1nccnc1CO | 97.7
36 | C[C@@H]1O[C@@H](O[C@H]2[C@H](Oc3cc(O)c4c(c3)O[C@H](c3ccc(O)cc3)CC4=O)O[C@H](CO)[C@@H](O)[C@@H]2O)[C@H](O)[C@H](O)[C@H]1O | 101.7
37 | CC(=O)N1CCc2c(sc(NC(=O)C(C)C)c2C#N)C1 | 106.9
38 | O=C(O)CCN1CCn2c3c(c4cc(C5CCCCC5)ccc42)CCCC31 (centres undefined) | 101.3
39 | CCc1c(C)c(C#N)c2nc3ccccc3n2c1N1CCN(CCO)CC1 | 100.2
40 | NC(=O)CSC1=NN2CCCC(=O)N=C2S1 | 101.4
41 | COc1ccc(CCNC(=O)c2ccc3nc(-c4ccccc4NC(C)=O)c(=O)[nH]c3c2)c(OC)c1 | 101.6
42 | COc1ccc2cc(C(=O)N3CCCCCC3)sc(=O)c2c1OC | 93.2
43 | Clc1cccc(Cl)c1NC1=NCCS1 | 104.5
44 | O=C1NC(c2ccccc2)C(c2ccccc2)N1 (centres undefined) | 100.8
45 | CN(C)C(=O)Oc1ccnc(SCc2c(Cl)cccc2Cl)n1 | 129.7
46 | COC(=O)c1sc(-c2ccccc2)cc1NC(C)=O | 100.5
47 | CCOc1ccc(OC(=O)c2cccnc2)cc1 | 99.4
48 | CCc1ccc(C2C3=C(CCCC3=O)OC3=C2C(=O)CCC3)cc1 | 100.6
49 | CCN(CC)C(=O)CSc1nc(N)cc(=O)[nH]1 | 124.2
50 | CCc1ccc(-n2c(=O)c3c4c(sc3n(CC(=O)N(C)C3CCCCC3)c2=O)CCC4)cc1 | 97.4
51 | CC1(c2ccccc2)OC(=O)C2C3CCCCC3=C3CCCCC3C21 (centres undefined) | 100.1
52 | C=C[C@H]1CN2CC[C@H]1C[C@@H]2[C@H](O)c1ccnc2ccccc12 | 99.9
53 | CC(C(=O)O)N1C(=O)C2CC=CCC2C1=O (centres undefined) | 99.9
54 | CCOc1ccc(NC(=O)CCC(=O)n2nc(C)cc2C)cc1 | 100.6
55 | CCC(C)(C(=O)NC1CCCCC1)N(C)C(=O)c1ccccn1 (centres undefined) | 94.8
56 | c1csc(CNc2nc3ccccc3n2CCN2CCCCC2)c1 | 100.8
57 | Cc1ccc(-c2onc3ccc(Cl)cc23)cc1 | 100.2
58 | COc1ccc(C(=O)NCc2nnc(SCC(=O)Nc3cc(C)cc(C)c3)o2)cc1OC | 102.6
59 | C=CCN1CC(C(=O)O)CC1=O (centres undefined) | 95.8
60 | CC(=O)NCCCc1nc2ccccc2n1C(C)C | 99.3

Six structures out of the list, ordered by molar mass, ascending.
entry | molecule | Vaccinia pol inh
31 | CCOC(=O)Cc1nc(C)cs1 | 100.2
26 | CCCC(=O)c1cc2cc(Cl)ccc2oc1=O | 101.6
20 | NS(=O)(=O)c1cccc(C(=O)NCc2ccccc2)c1 | 107.2
52 | C=C[C@H]1CN2CC[C@H]1C[C@@H]2[C@H](O)c1ccnc2ccccc12 | 99.9
23 | CCCc1c(C(=O)Nc2ncn[nH]2)cnn1-c1ccccc1 | 99.0
58 | COc1ccc(C(=O)NCc2nnc(SCC(=O)Nc3cc(C)cc(C)c3)o2)cc1OC | 102.6

Additional results:
entry | molecule | Vaccinia pol inh
61 | CC(=O)n1c(=O)oc2ccccc21 | 104.9
62 | Cc1ccc(C2=NNC(=O)C(P(=O)(c3ccccc3)c3ccccc3)C2)cc1 (centres undefined) | 100.1
63 | CC(C)(C)c1cc2c(c(C(C)(C)C)c1)Oc1cc(C#N)c(C#N)cc1O2 | 99.5
64 | c1ccc(-c2ccn(-c3ccccc3)n2)cc1 | 100.8
65 | N#Cc1c(-c2ccc(Cl)cc2)nc2n(c1=O)CCCS2 | 100.0
66 | Cn1c(/N=C/c2cc(C(C)(C)C)c(O)c(C(C)(C)C)c2)nc2ccccc21 | 99.9
67 | CCOC(=O)c1c(CSc2nc3ccccc3[nH]2)n(-c2ccccc2)c2ccc(OC(C)=O)cc12 | 108.7
68 | CC(C)C1NC(=S)NC2=C1CCCC2 (centres undefined) | 99.9
69 | O=C(c1cc2c(s1)CCC2)N1CCc2ccccc2C1 | 82.0
70 | CN(C)C(=O)CSc1nnc(N)s1 | 99.4
71 | CCc1cc2c[n+](C3CCCCC3)sc2s1 | 99.8
72 | Cc1ccc(SCC(=O)NC(C)(C)C)cc1 | 90.3
73 | COc1ccccc1Cn1[nH]nnc1=S | 97.6
74 | COc1ccc(C(=O)c2nocc2C(=O)c2cccs2)cc1 | 99.6
75 | NNC(=O)c1nc(-c2ccccc2)no1 | 99.9
76 | Cc1cc(Br)ccc1NC(=O)C1c2ccccc2C(=O)N2CCc3ccccc3C12 (centres undefined) | 100.6
77 | COCc1nc2ccc(C)cc2[nH]1 | 90.8
78 | Cc1csc2c(N3CC(C)OC(C)C3)ncnc12 (centres undefined) | 100.4
79 | CCNC(=O)c1cc(-c2ccco2)nc2ccccc12 | 100.3
80 | N#CN(Cc1ccccc1Cl)Cc1ccccc1Cl | 101.2
81 | CN(C)/C=C1/C=C(c2ccccc2)N(C)C1=S | 99.6
82 | Cn1c(C2CC(=O)N(Cc3ccccc3)C2)nc2ccccc21 (centres undefined) | 90.7
83 | Cc1c(CCOC(=O)C2CC2)sc[n+]1CC(=O)c1ccccc1 | 103.6
84 | COC(=O)C1=C(C)NC(C)=C(C(=O)OCCSc2ccccc2)C1C (centres undefined) | 100.5
85 | Cc1ccc(-c2ccc(C(=O)O)cc2)cc1 | 96.9
86 | CCC(C)Cn1c(C)c2c(=O)n(-c3nc4ccccc4s3)[nH]c2cc1=O (centres undefined) | 98.9
87 | O=S1(=O)CCN(Cc2ccccc2C(F)(F)F)CC1 | 84.0
88 | Cn1nccc1C(=O)NCCN | 98.8
89 | COc1ccc(CN2CCC(C(=O)NCc3ccc(C)cc3)CC2)cc1 | 89.5
90 | CCN1CCc2nc3ccccc3c(C(=O)O)c2C1 | 108.2
91 | COc1cccc(-c2nn(-c3ccccc3)c3c2cnc2ccccc23)c1 | 105.0
92 | CC1CCCC(n2cnc3cc(C(=O)O)ccc32)C1C (centres undefined) | 91.1
93 | CC(C)CC(C(=O)Oc1ccc2c3c(c(=O)oc2c1)CCC3)N1C(=O)c2ccccc2C1=O (centres undefined) | 100.3
94 | CCC(=O)Nc1ccc(-c2nnc3n2CCCCC3)cc1 | 100.4
95 | CSc1nc2c(=S)[nH]c(=S)[nH]c2s1 | 96.4
96 | CC(=O)Oc1cc(-c2cccc(C(F)(F)F)c2)c2oc(=O)sc2c1 | 100.1
97 | CC(C(=O)O)c1ccc(N2Cc3ccccc3C2=O)cc1 (centres undefined) | 100.4
98 | CC1=CC(c2ccccc2)n2nc(N)nc2N1 (centres undefined) | 91.2
99 | C=C1C(C(=O)Nc2cccc(OC)c2)C1C(=O)Nc1cccc(OC)c1 (centres undefined) | 77.1
100 | CC(C)CCNC(=O)Cn1nc(-c2ccccc2)ccc1=O | 81.1
101 | O=C(COC(=O)Cc1cccc2ccccc12)Nc1ccccc1F | 105.8
102 | CC1CN(C(=O)c2cccc(C(=O)N3CC(C)OC(C)C3)c2)CC(C)O1 (centres undefined) | 99.7
103 | CCSc1cc(CC)sc1C(=O)O | 99.0
104 | Cc1ccc(-c2ccccc2C(=O)O)cc1 | 90.3
105 | CCOC(=O)C1(c2ccccc2)CCN(CCOc2ccccc2)CC1 | 99.9
106 | CC(C)c1ccc(NC(=O)Cn2cccc2)cc1 | 98.8
107 | Cc1cc(N)n(-c2ccccc2C(F)(F)F)n1 | 101.9
108 | CC1(C)Cc2ccccc2C(CSc2nc3c(c(C(F)(F)F)n2)CCCC3)=N1 | 100.7
109 | CCOC(=O)CC1COc2ccccc2N1C(=O)c1ccc(F)cc1 (centres undefined) | 93.3
110 | CCN(CC)c1nc(Nc2cc(C)ccc2C)nc(Nc2ccccc2OC)n1 | 100.3
111 | C=CCSc1nc(C)c2cc(C)cc(C)c2n1 | 99.9
112 | Cc1cc2c(c(=O)o1)C(c1ccc(F)cc1)C(C#N)=C(N)O2 (centres undefined) | 98.1
113 | C=CCNc1nc2c([nH]c3ccccc32)s1 | 100.1
114 | CCOC1CCCCC1NS(=O)(=O)c1ccc(Cl)cc1 (centres undefined) | 99.7
115 | COc1cc(C)nc2nc(S(C)(=O)=O)nn12 | 106.9
116 | O=C(CCc1nc2cccnc2n1-c1ccccc1)NCCc1ccccc1 | 91.9
117 | Cc1ccc(S(=O)(=O)Nc2ccccc2Oc2ccccc2)cc1 | 101.8
118 | COc1ccc(C(=O)c2c[nH]cc2-c2ccc(C)cc2)cc1OC | 114.0
119 | COc1ccc(CCNC(=O)c2ccc3c(c2)NC(=O)/C(=C\c2ccc(C)cc2)S3)cc1OC | 93.1
120 | CCOC(=O)c1ccc(N=Cc2ccc(CC)cc2)cc1 | 98.7

Later entries:
entry | molecule | Vaccinia pol inh
121 | COC(=O)CN1C(=S)N(c2ccccc2)C(=O)/C1=C/c1ccc(-c2ccc(Cl)cc2)o1 | 100.3
122 | COc1ccc(C(=O)O)cc1NC(=S)NC(=O)Cc1ccc(Cl)cc1 | 100.6
123 | Cc1cc(C)nc(NN)n1 | 104.0
124 | COc1ccc(C(=O)CNc2ccccc2C#N)cc1 | 108.2
125 | Cc1nnc(C)n1/N=C\c1cccnc1 | 96.7
126 | Cc1c(C)c(C)c(CN2C(=O)c3ccccc3C2=O)c(C)c1C | 103.6
127 | CC(C)(C)c1cc(C(C)(C)C)n(-c2ccc(-n3cccc3)cc2)n1 | 101.5
128 | O=C(Nc1ccccc1N1CCCCC1)c1cc(Cl)sc1Cl | 120.6
129 | Nc1ccccc1SCc1cccc(Cl)c1F | 99.1
130 | COc1ccc(CC(=O)Nc2ccc(N3CCOCC3)cc2)cc1OC | 100.9
131 | CCCCC(=O)Nc1ccc(N2CCCC2)cc1 | 92.2
132 | CCC(CC)NC(=O)C(C)Oc1ccccc1 (centres undefined) | 98.9
133 | CC(C)Cn1c(SCc2ccccc2)nnc1-c1ccncc1 | 100.6
134 | CC12CCC(C(=O)N3CCc4ccccc4C3)(CC1=O)C2(C)C (centres undefined) | 99.7
135 | O=C(CSc1nnc2n1CCCN2)c1ccccc1 | 84.9
136 | O=C(NCC1CCCO1)Nc1ccc(Cl)cc1 (centres undefined) | 79.5
137 | CCc1ccc(N2CC34C=CC(O3)C(C(=O)OC)C4C2=O)cc1 (centres undefined) | 99.7
138 | CC1CCCCC1NC1=NCCCS1 (centres undefined) | 94.4
139 | O=C(/C=C/Oc1ccc(Cl)cc1)c1ccc(Br)cc1 | 86.7
140 | COc1ccc(/C=C2/SC(=S)N(CCC(=O)Nc3ccccc3)C2=O)cc1 | 100.1
141 | Cn1c(=O)c(=O)n(C)c2cc(S(=O)(=O)N3CCCC3C(=O)O)ccc21 (centres undefined) | 103.7
142 | Fc1ccc(/C=C/c2onc3ccccc23)cc1 | 106.9
143 | COc1ccc(/C=C2/Sc3ccc(C(=O)NC4CCCc5ccccc54)cc3NC2=O)cc1OC (centres undefined) | 95.6
